CtBP-E1A inh: CtBP/E1A binding inhibition | AlphaScreen GST-E1A/His-CtBP binding, 1536-well; hits give low values; control for the full effect not named in the record | activity change, % (no concentration beside the values) | 340,000 tested, 0.49% active; in the data active means activity change below about -65%; inconclusive means about -30% to -65%; inactive means above about -30%; note: % is set by controls: 0 for no effect and ±100 for the full control effect; compound concentration not given in the record
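In 5 uL wells, 23 nL compound meets equimolar GST-E1A and His-CtBP (5X stock 125 nM each) for 2 h, 37 °C. Beads (5X, 50 ug/mL) then 1 h, 37 °C, dark.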
TRPML1 agonist: agonists of human TRPML1 channel; Q9GZU1; 410,000 tested, 0.12% active; AID 624414; activation, % (concentration not given with the values); TRPML1-expressing cells, Ca2+ dye fluorescence, FDSS; host cell line not named in the record; reference of the full effect not given here; in the data active = activation above about 50%; inconclusive = about 30% to 50%; inactive = below about 30%; note: 0% is about no effect; the text of the record puts the active cut at 80%
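Agonist activity was taken from a 110 s kinetic Ca2+ dye read on the FDSS after pinning compounds onto TRPML1-DL cells. The cells were seeded at 1,500/well with Tet inducer, incubated about 16 h, then dye-loaded at room temperature.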
D2 agonist: activates the human D2 dopamine receptor. DiscoveRx PathHunter D2 beta-arrestin, luminescence, 90 min; 100% = 57 uM dopamine signal. activation, % (concentration not given with the values). 360,000 tested, 0.084% active. P14416; in the data active = activation above about 40%; inconclusive = about 15% to 40%; inactive = below about 15%; note: compound concentration not given in the record; the text of the record calls up to 30% inactive
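Agonist mode: compounds alone added to overnight-plated D2 PathHunter cells for 90 min at 37 C, with 57 uM final dopamine (EC100) defining full response. Beta-arrestin recruitment detected by chemiluminescent reagent, read after 1 h at ambient temperature.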
Six1-Eya2 blk: Six1/Eya2 interaction inhibition | AlphaScreen GST-Six1/His-Eya2 binding, biochemical; hits give low values; control for the full effect not named in the record | 360,000 tested, 0.56% active | activity change, % (no concentration beside the values) | Q15475+O00167 | AID 651725; in the data active = activity change below about -65%; inconclusive = about -30% to -65%; inactive = above about -30%; note: % is set by controls: 0 for no effect and ±100 for the full control effect; compound concentration not given in the record
Target sequence (O00167 whole entry, looked up): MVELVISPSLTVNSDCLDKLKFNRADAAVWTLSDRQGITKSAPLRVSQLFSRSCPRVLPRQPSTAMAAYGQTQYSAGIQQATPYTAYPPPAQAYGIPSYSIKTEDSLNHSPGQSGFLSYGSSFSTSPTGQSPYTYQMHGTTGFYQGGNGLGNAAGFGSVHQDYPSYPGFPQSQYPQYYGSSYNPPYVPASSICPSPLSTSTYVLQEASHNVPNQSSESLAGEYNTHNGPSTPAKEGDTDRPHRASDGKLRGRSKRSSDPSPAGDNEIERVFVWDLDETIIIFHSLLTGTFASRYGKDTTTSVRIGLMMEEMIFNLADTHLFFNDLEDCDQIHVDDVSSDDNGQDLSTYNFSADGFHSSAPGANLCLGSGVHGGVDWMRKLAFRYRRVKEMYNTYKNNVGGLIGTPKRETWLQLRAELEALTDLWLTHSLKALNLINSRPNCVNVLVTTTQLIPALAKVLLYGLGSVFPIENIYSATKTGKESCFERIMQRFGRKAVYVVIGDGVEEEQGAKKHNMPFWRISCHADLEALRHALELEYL
Target sequence (Q15475 whole entry, looked up): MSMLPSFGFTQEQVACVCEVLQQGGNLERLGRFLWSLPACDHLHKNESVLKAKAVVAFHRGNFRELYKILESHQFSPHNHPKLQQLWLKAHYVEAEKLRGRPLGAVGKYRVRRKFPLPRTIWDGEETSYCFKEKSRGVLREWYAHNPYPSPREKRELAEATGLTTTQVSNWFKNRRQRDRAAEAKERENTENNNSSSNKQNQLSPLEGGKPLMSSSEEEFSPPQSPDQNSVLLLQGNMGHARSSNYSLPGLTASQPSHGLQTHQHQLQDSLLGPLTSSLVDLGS
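AlphaScreen with GST-Six1 and His-Eya2 (5X mix: 250 nM and 500 nM), glutathione donor and nickel acceptor beads; buffer 50 mM Tris pH 8.0, 300 mM NaCl, 1 mM TCEP; 1 h at 37 C in the dark.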
D2 PAM: potentiates the human D2 dopamine receptor allosterically; P14416; DiscoveRx D2 beta-arrestin cells, luminescence, 90 min; 100% = 57 uM dopamine signal; potentiation, % (test concentration not listed); 360,000 tested, 0.23% active; active = potentiation of 50% or more; inconclusive = 30% to 50%; inactive = 30% or less;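 note: compound concentration not given in the record; tested on top of an EC20 dose of dopamine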
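PathHunter beta-arrestin assay in DiscoveRx D2 cells. Compounds were added with an EC20 of dopamine (50 nM final) for 90 min at 37 deg C. Luminescence was read 1 h after detection reagent, with 57 uM dopamine as the EC100 control.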
PINK1 modulator: modulators of PINK1 expression | PINK1 immunofluorescence, high-content cytometry, 24 h | Potency, µM (highest dose often 76.6 µM), inactives show top-dose activation (PINK1 increase), most hits filed as activators | 410,000 tested, 0.2% active; active = well fitted activation curve with a large enough effect; inconclusive = small, poorly fitted or top-dose-only effect; inactive = flat fitted curve, though single readings scatter; cell line not stated here;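 note: potency is the fitted concentration of half-maximal effect; % of control where 0% means no effect; nearly all actives have a fitted effect of over 65% in size; a mitochondrial uncoupler was the plate control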
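Decision-based qHTS: stable cells, 24 h exposure to five compound concentrations, CCCP as control. Fixed cells stained for PINK1 plus nuclear, mitochondrial and cell markers, cytometer read.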
Numbers without * were called inactive; ? = inconclusive; . = not tested or not shown; [ ] = remark or other dose.

cpd	compound	Six1-Eya2 blk	CtBP-E1A inh	D2 agonist	PINK1 modulator	D2 PAM	TRPML1 agonist
1	OCCCNc1nc(-c2ccc(Cl)cc2)nc2ccccc12	-11	-4	0.1	-1.2%	-2	0.2
2	CC(C)c1ccc(OCCCCCN2CCOCC2)cc1	-3	1	1.8	3.7%	-9	3.1
3	COc1cccc2cc(C(=O)CS(=O)(=O)c3ccc(C(C)(C)C)cc3)c(=O)oc12	3	.	4.2	1.2%	7	1.4
4	N#Cc1ccc(N2C(=O)[C@@H]3C(C(=O)C(c4ccccc4)c4ccccc4)=NN[C@@H]3C2=O)cc1	8	6	-1.1	-1.2%	0	1.3
5	O=C(N[C@@H](Cc1ccccc1)C(=O)CCl)OCc1ccccc1	7	-16	-8.0	-0.7%	-34	-0.6
6	Clc1ccc(-n2nnnc2Sc2ncnc3sccc23)cc1	-3	-5	-7.2	0.5%	-7	0.3
7	O=C(O)c1ccc(CN2CCOCC2)o1	-3	1	-4.7	0.1%	0	-0.2
8	COc1ccc(C(=O)c2[nH]c(N)c(C(=O)NCCc3c[nH]c4ccccc34)c2-c2ccccc2Br)cc1	-13	1	.	6.2%	.	-0.8
9	O=C(OCCc1cc2ccccc2c(=O)o1)c1ccc2c(c1)OCO2	9	8	-0.2	0.9%	7	2.2
10	CCCOc1ccc(F)cc1-c1cc(C(=O)Nc2ccc(OC)c(OC)c2)[nH]n1	-8	-6	1.7	0.5%	1	-0.7
11	CCC(=O)Oc1ccc2c(c1)OC1(OC(C)=O)OC(C)CC1=C2C (stereo not drawn)	-9	-8	-2.5	0.5%	2	.
12	Clc1ccc(OCCCNCc2ccccc2)c(Br)c1	13	11	1.0	23%[38.3 µM]	-23	-0.8
13	CC(C)OC(=O)N(C)C[C@@H]1OCc2cnnn2CCCC(=O)N([C@H](C)CO)C[C@@H]1C	2	3	-9.8	0.4%	-1	-0.3
14	COc1cccc(N2C(=O)C3ON(c4ccccc4)C(c4cccs4)C3C2=O)c1 (stereo not drawn)	-6	4	-0.8	-0.3%	1	0.1
15	Cc1cccc(NC(=O)c2cccc(C(=O)Nc3cccc(C)c3C)n2)c1C	-12	3	-0.6	5.4%	-6	-1.5
16	COCCNC(=O)C(c1ccc(F)cc1)N(Cc1ccco1)C(=O)CCC(=O)Nc1ccccn1 (stereo not drawn)	-3	8	-3.7	-0.1%	-5	-0.5
17	CC(C)CC1Nc2ncnc(N3CCN(c4ccccc4)CC3)c2N(Cc2ccc(Br)cc2)C1=O (stereo not drawn)	-23	-18	-8.5	1.3%	-14	0.2
18	COC(=O)Nc1nc(C)c(C(=O)c2ccccc2)s1	-3	0	-3.0	5.2%	-23	-1.0
19	O=C(CN1CCN(Cc2ccccc2)CC1)N1CCCc2ccccc21	2	.	-6.7	-0.8%	-23	1.3
20	CN(C(=O)c1cccc(NC(=O)Cc2cccc(NC(=O)C3CCN(C(=O)C4CCCCC4)CC3)c2)c1)C1CCC1	-1	-1	1.9	-0.1%	-6	0.6
21	CCCNC(=O)c1cc(S(=O)(=O)N2CCc3ccccc32)cn1C	-3	-2	-0.7	0.0%	0	0.1
22	NS(=O)(=O)c1ccc(CCNC(=O)COC(=O)Cc2ccc(Cl)cc2)cc1	1	-5	-1.4	0.7%	1	-0.3
23	COc1ccc(N2CCN(C(=O)NC3CC(=O)N(c4ccc(OC)cc4)C3)CC2)cc1 (stereo not drawn)	-4	-2	-0.1	2.3%	0	1.0
24	CCOC(=O)C1=C(C)NC2=C(C(=O)CCC2)C1c1ccc(N(C)C)cc1 (stereo not drawn)	-5	-11	-1.6	3.0%[38.3 µM]	-7	0.6
25	CC(OC(=O)CCN=C1NS(=O)(=O)c2ccccc21)C(=O)Nc1ccc(F)c(F)c1F (stereo not drawn)	8	0	12	-0.5%	-1	-0.2
26	Cc1ccc(S(=O)(=O)N(C)c2ccc(C(=O)Nc3cccnc3)cc2)cc1	-7	5	-0.8	-1.9%	-28	1.3
27	COc1ccccc1CCn1cnc(Cc2ccccc2)c1C(C)C	-19	-1	.	?	.	2.9
28	O=C(CN1CCC(C(=O)O)CC1)Nc1ccccc1Oc1ccccc1	-4	-4	-3.4	0.8%	-2	1.2
29	COCCNc1c(-c2cc3ccc(C)c(C)c3[nH]c2=O)nc2ccccn12	-1	-2	4.2	2.9%	14	1.6
30	COc1ccc(S(=O)(=O)n2[nH]c(=O)c(CCO)c2C)cc1	7	1	-2.2	0.1%	-5	0.7
31	CCOC(=O)c1ccc(N/C(=N\S(=O)(=O)c2ccc(F)cc2F)c2ccccc2)cc1	-5	-5	1.0	-0.7%	-15	0.0
32	O=C(Nc1ccccc1Cl)NC1(C(=O)N2CCCC2)CCCCC1	6	-2	-1.8	0.8%	1	-1.6
33	COc1ccc(N2CCN(S(=O)(=O)/C=C/c3ccccc3)CC2)cc1	0	3	-1.1	-1.0%	5	2.2
34	O=C1Nc2ccccc2SC1c1ccccc1 (stereo not drawn)	-2	.	-4.9	2.5%	0	-0.5
35	CC(C)(C)NC(=O)C1c2ccccc2OCC(=O)N1Cc1ccccc1 (stereo not drawn)	11	-18	.	-1.2%	.	-0.7
36	Cc1ccc(N2CC(C(=O)OCC(=O)C(C)(C)C)CC2=O)cc1C (stereo not drawn)	-2	3	-1.4	1.5%[38.3 µM]	-8	-0.3
37	COc1ccc(CN=C2NN=C(c3ccccc3)CS2)cc1	-15	-1	-0.6	5.3%	-9	-0.7
38	CC(=O)NC(c1cccc([N+](=O)[O-])c1)c1c(OC(C)=O)ccc2ccccc12 (stereo not drawn)	-8	-1	-6.9	0.5%	-33	0.9
39	O=C(C1COc2ccccc2O1)N1CCN(c2nc3c(F)cc(F)cc3s2)CC1 (stereo not drawn)	-7	0	6.7	0.9%	8	0.1
40	Oc1ccc(O)c(-c2cnns2)c1	-3	-1	?	0.8%	?	0.1
41	O=C(CSc1nc2[nH]ncc2c(=O)[nH]1)NCc1ccccc1Cl	0	-3	-2.4	0.6%	-14	-0.7
42	CCOC(=O)COc1ccc(N)cc1CC(NC(C)=O)(C(=O)OCC)C(=O)OCC	-3	-9	-2.0	.	6	-0.2
43	CCN1C(=O)C(CC(=O)NC)N(NC(=O)c2ccccc2)C1=S (stereo not drawn)	15	-8	-1.6	0.6%	-3	0.8
44	CCCC(=O)N1CCN(c2ccc(NC(=O)c3ccc(Br)o3)cc2)CC1	7	0	-1.1	-0.4%	-14	0.7
45	COc1ccc(Cc2nnc(SC(C)C(=O)Nc3ccc(F)cc3Cl)o2)cc1 (stereo not drawn)	0	-5	-2.7	3.5%	9	-1.1
46	Cc1onc(-c2c(F)cccc2Cl)c1C(=O)N1CCCc2ccccc21	-2	-1	-2.2	0.6%	16	-0.9
47	Cc1ccccc1-c1nc2ccccc2o1	16	6	-0.7	.	6	0.9
48	O=C(Cn1cnc2c(nnn2Cc2ccc(F)cc2)c1=O)N1CCCc2ccccc21	6	-3	0.7	0.2%	13	-0.7
49	O=C(c1c(F)cccc1F)N1CCN(CCOc2ccccc2)CC1	6	11	0.7	0.8%	-9	-1.3
50	COC(=O)CCN(C(=O)c1cccc([N+](=O)[O-])c1)c1ccccn1	3	-1	0.9	-2.2%	-7	0.4
51	O=S(=O)(c1cccc2nonc12)N1CCCCCC1	-1	.	-1.5	-0.9%	-2	0.6
52	O=C(c1cc(N2C(=O)C3C4CCC(C4)C3C2=O)ccc1Cl)N1CCCCCC1 (stereo not drawn)	1	0	-0.6	-0.2%	-4	-0.2
53	CC(C)C(c1nnnn1C1CCCCC1)N1CCOCC1 (stereo not drawn)	7	-1	-1.3	-1.0%[38.3 µM]	2	-0.3
54	COCCOC(=O)CSc1ncccc1-c1nc2cc(C)c(C)cc2[nH]1	3	0	-1.9	1.0%	-6	.
55	Cc1ccc(S(=O)(=O)N2CCN(S(=O)(=O)N3CCC(C)CC3)CC2)c(C)c1	-4	2	-3.1	3.4%	-10	-0.4
56	Cc1nc(-n2nnc3ccccc32)c2c3c(sc2n1)CCCC3	9	12	-0.9	-1.7%[38.3 µM]	-4	1.6

Next part.
cpd	compound	Six1-Eya2 blk	CtBP-E1A inh	D2 agonist	PINK1 modulator	D2 PAM	TRPML1 agonist
57	Cc1cc(NC(=O)CCN2C(=O)/C(=C\c3ccccc3)SC2=S)no1	15	-13	0.8	3.3%	3	-0.8
58	O=C(CSc1nnc(-c2cccnc2)n1Cc1ccco1)Nc1nc(-c2ccc(F)cc2)cs1	-16	-6	1.1	-0.1%	27	1.2
59	Cc1ccc(NC(=O)c2cc(C(C)(C)C)nn2Cc2ccccc2)cc1	29	16	7.9	9.8%	0	0.0
60	Cc1ccccc1NC(=O)Cn1nc(C)n2cccc2c1=O	2	.	1.1	0.1%	2	-0.9
61	CSc1ccc(CNCCN2CCOCC2)cc1	9	17	-1.9	-3.1%	-4	0.0
62	N=c1sccn1CC(=O)Nc1cc(S(=O)(=O)N2CCCCC2)ccc1Cl	1	2	2.3	-2.7%	-3	0.8
63	CC1CCC2(CC1)NC(CO)(CO)CO2 (stereo not drawn)	4	5	0.7	-1.1%	8	5.0
64	CCc1ccc(NC(=O)C(=O)NCCN2CCN(Cc3ccc([N+](=O)[O-])cc3)CC2)cc1	1	5	-4.1	8.2%	-13	0.6
65	COC(=O)CN(c1ccc(Cl)cc1C)S(C)(=O)=O	6	-1	-3.9	4.3%	-1	-0.3
66	CC(NC(=O)c1cccnc1)C(c1cccs1)N1CCN(C)CC1 (stereo not drawn)	4	8	-5.1	-0.3%	-2	-0.2
67	COc1ccc(OC)c(NC(=O)CNC(=O)Cn2cnc3sc(C)cc3c2=O)c1	3	8	-0.7	-0.7%	-4	0.3
68	COC(=O)c1sccc1NC(=O)C1C2C=CC(O2)C1C(=O)O (stereo not drawn)	1	2	0.3	-0.3%	17	-0.6
69	CC(C)(C)NC(=O)CN(Cc1cccs1)C(=O)CCN1CCc2ccccc21	-3	-4	-4.2	0.1%	-1	1.3
70	Cn1cc(C(=O)Nc2ccc(Cl)cc2)c(C(F)(F)F)n1	-3	.	-2.9	2.6%	-15	-0.1
71	COc1cc(OC)cc(C(=O)NCC(=O)OCC(=O)NC2CCCc3ccccc32)c1 (stereo not drawn)	-3	3	-2.6	1.3%	-13	2.0
72	CC(C)(C)NC(=O)CN(C(=O)CN1C(=O)C(=O)c2ccccc21)C(C)(C)C	-1	-14	-1.7	0.9%	-17	0.3

Assay outcomes as filed in PubChem BioAssay.
